High-throughput results deposited in PubChem by several laboratories.
BioA inh – M. tuberculosis BioA enzyme inhibitors, primary screen, biochemical, plate reader, single point, HTS. 7,8-diaminopelargonic acid synthase BioA (Mycobacterium tuberculosis). purified M. tuberculosis BioA enzyme. inhibition, % at 9.99 µM. hit rate 0.096% among 360,000; in the data active = inhibition above about 40%
FBA Mtb inh – Mtb FBA enzyme inhibitors, primary screen, biochemical, fluorescence, strain H37Rv; purified M. tuberculosis FBA, fluorescence read-out; inhibition, % at 1 µM; hit rate 2.3% among 360,000; AID 588726, 2011; in the data active = inhibition above about 27%;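 also: 0% = vehicle and 100% = reference inhibitor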
Target sequence (P9WQA3 whole entry, looked up): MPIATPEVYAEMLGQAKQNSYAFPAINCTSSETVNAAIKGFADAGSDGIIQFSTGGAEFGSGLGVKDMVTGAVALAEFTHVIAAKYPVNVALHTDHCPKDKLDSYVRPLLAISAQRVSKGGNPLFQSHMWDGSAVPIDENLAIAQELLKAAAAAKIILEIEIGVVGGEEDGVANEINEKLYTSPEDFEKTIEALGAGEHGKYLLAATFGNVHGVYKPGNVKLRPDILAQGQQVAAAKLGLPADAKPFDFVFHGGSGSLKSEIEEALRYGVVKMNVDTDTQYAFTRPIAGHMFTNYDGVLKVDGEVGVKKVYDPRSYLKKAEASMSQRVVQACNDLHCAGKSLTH
FadD28 binding – inhibitors of FadD28 bisubstrate probe binding, primary screen, biochemical, fluorescence polarization, single point. Mycobacterium tuberculosis FadD28 fatty-acid-AMP ligase. inhibition, % at 12.5 µM. hit rate 0.22% among 360,000. AID 588549, 2011; in the data active = inhibition above about 8.5%, passing the limit was not always enough
BoNT-A LC inh2 – BoNT/A light chain protease inhibitors, primary screen, biochemical, flow cytometry, MLPCN library; Botulinum neurotoxin type A light chain protease (Clostridium botulinum A str. ATCC 3502); multiplex microsphere protease substrate cleavage; inhibition, % at 10 µM; hit rate 0.17% among 360,000; AID 588499, 2011; in the data active = inhibition above about 30%; also: plate controls were buffer without enzyme for full effect and enzyme alone for no effect
UGM FP inh – M. tuberculosis UGM enzyme inhibitors, primary screen, biochemical, fluorescence polarization, single point; AID 504406, 2011; UDP-galactopyranose mutase (Mycobacterium tuberculosis (strain ATCC 25618 / H37Rv)), …; inhibition, % at 10 µM; hit rate 0.06% among 320,000; purified UGM, fluorescence polarization probe displacement; in the data active = inhibition above about 10%, passing the limit was not always enough
Target sequence (P9WIQ1 whole entry, looked up): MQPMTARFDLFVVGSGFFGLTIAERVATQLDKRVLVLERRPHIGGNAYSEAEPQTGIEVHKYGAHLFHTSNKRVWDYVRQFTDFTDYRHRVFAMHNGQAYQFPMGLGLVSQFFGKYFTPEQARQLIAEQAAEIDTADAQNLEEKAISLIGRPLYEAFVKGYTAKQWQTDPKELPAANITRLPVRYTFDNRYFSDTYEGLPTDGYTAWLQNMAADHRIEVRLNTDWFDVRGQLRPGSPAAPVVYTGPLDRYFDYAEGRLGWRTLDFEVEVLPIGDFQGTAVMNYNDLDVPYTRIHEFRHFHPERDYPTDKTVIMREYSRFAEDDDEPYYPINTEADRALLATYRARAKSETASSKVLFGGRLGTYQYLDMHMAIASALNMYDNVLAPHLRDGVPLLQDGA
BoNT-F LC inh – BoNT/F light chain protease inhibitors, primary screen, biochemical, flow cytometry, MLPCN library | Multiplex microsphere protease cleavage assay | AID 588497, 2011 | inhibition, % at 10 µM | hit rate 0.22% among 360,000 | Botulinum neurotoxin type F light chain protease (Clostridium botulinum); in the data active = inhibition above about 35%, passing the limit was not always enough; also: plate controls were buffer without enzyme for full effect and enzyme alone for no effect
GDH-TPI counter – GDH-TPI coupling enzyme inhibitors, primary screen, artefact control for M. tuberculosis FBA inhibitor project, biochemical, absorbance, full deck; AID 588335, 2011; inhibition, % at 4.8 µM; GDH-TPI coupled enzyme counterscreen, NADH absorbance; hit rate 1.2% among 360,000; in the data active = inhibition above about 30%;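 also: 0% = DMSO wells and 100% = wells lacking the enzyme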
PfHsp40 rescue – rescue of yeast from PfHsp40 toxicity, primary screen, S. cerevisiae, ATP luminescence; S. cerevisiae expressing PfHsp40, growth rescue; growth rescue, % at 12.5 µM; hit rate 0.68% among 340,000; in the data active = growth rescue above about 28%, passing the limit was not always enough;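 also: yeast W303a lacking pdr1 and pdr3 grown in galactose medium; growth measured after three days at 30 °C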
* = called active by the depositor; / = not tested or not shown; & = joins results of further samples; ! = not active in a repeat. The list is partial. The share of hits here may be higher or lower than overall.

Keys: A = BioA inh; B = FBA Mtb inh; C = FadD28 binding; D = BoNT-A LC inh2; E = UGM FP inh; F = BoNT-F LC inh; G = GDH-TPI counter; H = PfHsp40 rescue
molecule: CC(C)(O)[C@@H]1[C@H]2OC(=O)[C@@H]1[C@]1(O)C[C@H]3O[C@]34C(=O)O[C@H]2[C@]14C (tested in a mixture with another compound)
  A: /	B: /	C: /	D: /	E: 1.3	F: /	G: /	H: /

molecule: C[C@]12CCC3=C4CCC(=O)C=C4CC[C@H]3C1CC[C@@H]2O (some centres not stated)
  A: 0.2	B: -1	C: 0.1	D: 0.0	E: 1.5	F: 18	G: 14	H: -1.2

molecule: COC(=O)C1=CCCN(C)C1
  A: -0.3	B: 0	C: -3.1	D: -0.8	E: 0.2	F: -8	G: 2	H: -0.5

molecule: CCOC(=O)[C@H](CCc1ccccc1)N[C@@H](C)C(=O)N1[C@H](C(=O)O)C[C@@H]2CCC[C@@H]21
  A: 0.6	B: -1	C: -2.3	D: 0.3	E: 0.8	F: 6	G: -4	H: 5.5

molecule: Nc1nc(N)nc(-c2ccc(Cl)cc2)n1
  A: 0.4	B: -1	C: 0.0	D: 0.1	E: -1.1	F: -4	G: 4	H: 1.1

molecule: CC(NC(=O)Cc1ccccc1)c1ccccc1 (configuration not stated)
  A: 0.1	B: 1	C: 2.0	D: -0.7	E: 1.5	F: -18	G: 2	H: -0.2

molecule: Cc1ncc([N+](=O)[O-])n1CC(C)O (configuration not stated)
  A: 0.2	B: -3	C: -2.8	D: -0.2	E: /	F: -8	G: 17	H: -1.3

molecule: O=S(=O)(Nc1ccccc1-c1ccccc1)c1ccccc1
  A: 1.6	B: -3	C: -1.8	D: -0.4	E: /	F: -9	G: -1	H: 1.9

molecule: O=C(CCCN1CCC(O)(c2cccc(C(F)(F)F)c2)CC1)c1ccc(F)cc1
  A: 1.7	B: 3	C: -0.5	D: -0.4	E: -0.1	F: -2	G: 0	H: 1.7

molecule: CCN1CCC[C@H]1CNC(=O)c1cc(S(N)(=O)=O)ccc1OC
  A: /	B: /	C: /	D: /	E: -2.4	F: /	G: /	H: /

molecule: CCSC(=O)N1CCCCCC1
  A: -1.1	B: 3	C: -0.9	D: 0.2	E: 1.7	F: -8	G: 3	H: -0.3

molecule: Cc1cccc(Nc2ncnc3ccccc23)c1
  A: 3.5	B: -1	C: -3.5	D: -1.5	E: -2.1	F: -16	G: 10	H: 0.6

molecule: Cc1cc(NS(=O)(=O)c2ccc(N)cc2)no1
  A: -0.2	B: 0	C: 0.2	D: -0.6	E: -3.1	F: -11	G: 2	H: 5.8

molecule: C[C@]12CC[C@@H]3c4ccc(O)cc4CC[C@H]3[C@@H]1CC[C@@H]2O
  A: 0.3	B: 3	C: -2.1	D: 0.1	E: -3.2	F: 7	G: 0	H: -1.4

molecule: Cc1c(C(=O)O)cccc1-n1c(C)cc(/C=N/Nc2ccc([N+](=O)[O-])cn2)c1C
  A: /	B: -10	C: 34*	D: 1.0	E: -0.7	F: -1	G: 2	H: -0.3

molecule: C#CCN(C)C(C)Cc1ccccc1 (configuration not stated)
  A: 0.3	B: -1	C: -0.8	D: -0.6	E: 5.3	F: 2	G: 6	H: 0.6

molecule: NC12CC3CC(CC(C3)C1)C2
  A: -1.3	B: 1	C: -0.1	D: -0.9	E: -0.6	F: -24	G: -9	H: -1.7

molecule: CCN(CC)C(=O)Cc1ccccc1
  A: -2.5	B: 0	C: -0.4	D: -1.9	E: -1.1	F: -10	G: 2	H: -0.9

molecule: Cc1c(C(N)=O)cc([N+](=O)[O-])cc1[N+](=O)[O-]
  A: /	B: 6	C: -1.5	D: -0.3	E: /	F: -9	G: 12	H: -0.9

molecule: Cc1ccc(C(C)C)c(O)c1
  A: -1.5	B: 2	C: 0.5	D: -0.7	E: -0.7	F: -4	G: 6	H: -0.6

molecule: O=c1[nH]c2c(c(=O)n1C1CCCCC1)CCC2
  A: -0.7	B: 0	C: 0.9	D: -1.4	E: 1.4	F: 1	G: 3	H: -1.7

molecule: O=c1[nH]cnc2c1ccn2C1OC(CO)C(O)C1O (configuration not stated)
  A: -2.2	B: 1	C: -1.3	D: -0.1	E: /	F: -5	G: -1	H: 1.0

molecule: Cc1cc(C)c(CNC(=O)c2cc(C3CC3)nc3c2cnn3C(C)C)c(=O)[nH]1
  A: /	B: 7	C: 1.3	D: -1.6	E: 0.8	F: -3	G: 8	H: -0.8

molecule: CCOC(=O)c1ccccc1C(=O)OCC
  A: -4.6	B: 1	C: 1.1	D: -0.5	E: 3.7	F: 4	G: 6	H: -0.5

molecule: Cc1cc(Cl)ccc1OC(C)C(=O)O (configuration not stated)
  A: -0.8	B: 2	C: 0.0	D: -1.5	E: -1.8	F: -9	G: 7	H: 0.6

molecule: C[C@]12CCC(=O)C=C1CC[C@@H]1[C@@H]2C(=O)C[C@@]2(C)[C@H]1CC[C@]2(O)C(=O)CO
  A: -0.1	B: -2	C: -1.2	D: -0.3	E: -3.0	F: -10	G: -4	H: -1.0

molecule: O=C(O)COc1cc(Cl)c(Cl)cc1Cl
  A: -1.5	B: 4	C: 0.8	D: -0.5	E: /	F: -1	G: -2	H: /

molecule: CCC(C)c1ccccc1O (configuration not stated)
  A: -1.8	B: -2	C: -2.7	D: -0.7	E: -0.5	F: -9	G: -5	H: -1.0

molecule: C#C[C@]1(O)CC[C@H]2[C@@H]3CCC4=Cc5oncc5C[C@]4(C)[C@H]3CC[C@@]21C
  A: 0.9	B: 6	C: -10	D: -1.4	E: 1.9	F: -8	G: 13	H: 2.2

molecule: O=CC(O)C1OC(=O)C(O)C1O (configuration not stated)
  A: 0.3	B: 4	C: -1.0	D: -1.2	E: /	F: -1	G: 7	H: -0.1

As a working copy, some entries already given:
Keys: A = BioA inh; B = FBA Mtb inh; C = FadD28 binding; D = BoNT-A LC inh2; E = UGM FP inh; F = BoNT-F LC inh; G = GDH-TPI counter; H = PfHsp40 rescue
molecule: CC(C)(O)[C@@H]1[C@H]2OC(=O)[C@@H]1[C@]1(O)C[C@H]3O[C@]34C(=O)O[C@H]2[C@]14C (tested in a mixture with another compound)
  A: /	B: /	C: /	D: /	E: 1.3	F: /	G: /	H: /

molecule: C[C@]12CCC3=C4CCC(=O)C=C4CC[C@H]3C1CC[C@@H]2O (some centres not stated)
  A: 0.2	B: -1	C: 0.1	D: 0.0	E: 1.5	F: 18	G: 14	H: -1.2

molecule: COC(=O)C1=CCCN(C)C1
  A: -0.3	B: 0	C: -3.1	D: -0.8	E: 0.2	F: -8	G: 2	H: -0.5

molecule: CCOC(=O)[C@H](CCc1ccccc1)N[C@@H](C)C(=O)N1[C@H](C(=O)O)C[C@@H]2CCC[C@@H]21
  A: 0.6	B: -1	C: -2.3	D: 0.3	E: 0.8	F: 6	G: -4	H: 5.5

molecule: Nc1nc(N)nc(-c2ccc(Cl)cc2)n1
  A: 0.4	B: -1	C: 0.0	D: 0.1	E: -1.1	F: -4	G: 4	H: 1.1

molecule: CC(NC(=O)Cc1ccccc1)c1ccccc1 (configuration not stated)
  A: 0.1	B: 1	C: 2.0	D: -0.7	E: 1.5	F: -18	G: 2	H: -0.2

molecule: Cc1ncc([N+](=O)[O-])n1CC(C)O (configuration not stated)
  A: 0.2	B: -3	C: -2.8	D: -0.2	E: /	F: -8	G: 17	H: -1.3

molecule: O=S(=O)(Nc1ccccc1-c1ccccc1)c1ccccc1
  A: 1.6	B: -3	C: -1.8	D: -0.4	E: /	F: -9	G: -1	H: 1.9

molecule: O=C(CCCN1CCC(O)(c2cccc(C(F)(F)F)c2)CC1)c1ccc(F)cc1
  A: 1.7	B: 3	C: -0.5	D: -0.4	E: -0.1	F: -2	G: 0	H: 1.7

molecule: CCN1CCC[C@H]1CNC(=O)c1cc(S(N)(=O)=O)ccc1OC
  A: /	B: /	C: /	D: /	E: -2.4	F: /	G: /	H: /

The listing continues.
Keys: A = BioA inh; B = FBA Mtb inh; C = FadD28 binding; D = BoNT-A LC inh2; E = UGM FP inh; F = BoNT-F LC inh; G = GDH-TPI counter; H = PfHsp40 rescue
molecule: Cc1ccccc1[N+](=O)[O-]
  A: -0.5	B: 2	C: -1.9	D: -1.1	E: 0.7	F: 2	G: 6	H: -0.1

molecule: O=C(CCCN1CCC(O)(c2ccc(Br)cc2)CC1)c1ccc(F)cc1
  A: 2.0	B: -1	C: -3.0	D: 0.4	E: 5.0	F: 0	G: -3	H: 1.6

molecule: COc1ccc2c(c1OC)C(=O)O[C@@H]2[C@H]1c2cc3c(cc2CCN1C)OCO3
  A: 0.8	B: 4	C: -0.6	D: -1.1	E: 3.1	F: -8	G: 12	H: -1.2

molecule: O=C1CCC(C(=O)O)N1 (configuration not stated)
  A: 1.2	B: 3	C: -1.9	D: -1.1	E: -2.1	F: -4	G: -1	H: -0.8

molecule: NS(=O)(=O)c1cc2c(cc1Cl)NC(C(Cl)Cl)NS2(=O)=O (configuration not stated)
  A: -0.7	B: 3	C: -2.8	D: -0.8	E: 0.7	F: 0	G: 10	H: -1.8

molecule: O=C(/C=C/c1ccc(O)c(O)c1)O[C@@H]1C[C@](O)(C(=O)O)C[C@@H](O)[C@H]1O
  A: -0.2&-4.8	B: 1&3	C: -2.6&-0.1	D: -0.4&-0.4	E: 0.9&-1.8	F: 1&-1	G: 50*!	H: -1.2&-0.8
